High-throughput results as filed in PubChem BioAssay.
Sa helicase inh = S. aureus DNA helicase inhibition; purified S. aureus helicase, fluorescence unwinding assay; about half of the hits fall short of the stated cut; 120,000 tested, 0.05% active; inhibition, %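 (tested at about 80 µM)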;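 active means both duplicates at 50% or more, or one of them with a favoured structure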;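 further: 0% = mean of negative control wells and 100% = mean of positive control wells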
MgrA-DNA mod = alters Staphylococcus aureus MgrA binding to DNA; inhibition, %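 (about 10 µg/mL by stock and volumes)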; AID 602314; fluorescence polarization; 84,000 tested, 0.13% active;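 active means above 50% in either of two replicates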;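 further: 0% = protein plus DNA without compound and 100% = DNA alone without protein; higher means less MgrA bound to DNA so lower polarization; one replicate is shown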
* hit, by the source's call; . = no result given; & = joins results of further samples. Only part of the results is shown. The share of hits here may be higher or lower than overall.

The line under a structure holds: Sa helicase inh | MgrA-DNA mod
- Cc1ccc(-c2noc(CN3C(C)CCCC3C)n2)cc1 (stereo not given)
    4.0 | 0.6
- N#Cc1sc2nc(N3CCCCC3)c3c(c2c1N)CCCC3
    11.0 | -1.1
- COC(=O)c1ccc2c(c1)nc(SCc1ccccc1Cl)n1c3ccccc3nc21
    -2.0 | 0.9
- CSc1nnc(C)n1-c1ccc(OCc2ccccc2)cc1
    . | -3.7
- O=C(OCC(=O)c1ccccc1)C1=NN(c2ccccc2)C(=O)CC1
    13.0 | .
- CCC(C)(C)C1CCC(=NNC(=O)Cc2cccn2C)CC1 (stereo not given)
    -8.0 | .
- Cc1cccc(NC(=O)c2ccc(-n3nc(C)cc3C)cc2)c1
    19.0 | -0.8
- COc1ccc(OCC(O)CNC(=O)c2c(-c3ccccc3)noc2C)cc1 (stereo not given)
    . | -0.1
- COc1ccc(-c2nc(-c3cccc([N+](=O)[O-])c3)cs2)cc1
    . | -3.0
- COc1ccccc1C(=O)Nc1sc2c(c1C(N)=O)CCC2
    6.0 | 0.2

An excerpt from above in order of molecular weight, rising.
The line under a structure holds: Sa helicase inh | MgrA-DNA mod
- Cc1cccc(NC(=O)c2ccc(-n3nc(C)cc3C)cc2)c1
    19.0 | -0.8
- CSc1nnc(C)n1-c1ccc(OCc2ccccc2)cc1
    . | -3.7
- COc1ccc(-c2nc(-c3cccc([N+](=O)[O-])c3)cs2)cc1
    . | -3.0
- O=C(OCC(=O)c1ccccc1)C1=NN(c2ccccc2)C(=O)CC1
    13.0 | .

Next section:
The line under a structure holds: Sa helicase inh | MgrA-DNA mod
- CCCNS(=O)(=O)c1c(C(=O)OCC)c(C)n(C)c1C
    -21.0 | .
- O=C(CSc1nc2ccccc2[nH]1)Nc1ccccc1C(F)(F)F
    . | -2.4
- O=c1[nH]c2ccccc2cc1CNc1ccc(Cl)cc1
    -11.0 | 2.9
- Cc1nc(COC(=O)c2n[nH]c3ccccc23)cs1
    20.0 | .
- O=C1c2ccccc2C(=O)c2sccc21
    -18.0 | .
- Cc1c(C(=O)N2CCN(C(=O)C3COc4ccccc4O3)CC2)sc2nc[nH]c(=O)c12 (stereo not given)
    -6.0 | .
- COc1ccc(Br)c(C(=O)Nn2c(-c3cc(OC)c(OC)c(OC)c3)nc3ccccc3c2=O)c1
    . | -0.4
- COc1ccc(-c2nc(Cn3c(SCc4ccccc4C)nc4ccncc43)c(C)o2)cc1OC
    -7.0 | .
- Cc1oc2c(C)c3oc(=O)c4c(c3cc2c1C)CCCC4
    22.0 | .
- CCN(CC)c1ccc(NC(=O)C(C)C)cc1
    5.0 | 2.3
- Oc1c(C(c2cccs2)N2CCCCC2)ccc2cccnc12 (stereo not given)
    10.0 | .
- CNc1ccccc1C(C)(C)c1cc(-c2cc(OC)cc(OC)c2)n[nH]1
    -21.0 | 2.3
- O=C1NN=C(Cc2ccccc2)C1CCO (stereo not given)
    8.0 | -0.6
- CC(C)(C)C(=O)Nc1ccc2oc(=O)ccc2c1
    3.0 | -0.4
- Cc1cc(C)n(CNc2ccc(I)cc2)n1
    -1.0 | 2.8
- CC1(C)CC(=O)c2cc(C#N)c(SCC(N)=O)nc2C1
    10.0 | -1.5
- CN(C)c1ccc(/C=N/S(=O)(=O)c2ccccc2)cc1
    -25.0 | -1.4
- CN1C/C(=C/c2ccco2)C(=O)/C(=C/c2ccco2)C1
    10.0 | .
- CCOC(=O)C1=C(C)N(C)C(C)=C(C(=O)OCC)C1c1ccccc1F
    12.0 | -0.1
- CCOC(=O)c1c(C(C)(C)C)oc2ccc(OCc3ccc(C(=O)OC)cc3)cc12
    -9.0 | 1.6
- CC(=O)Oc1ccc2c(=O)c(-c3ccccn3)coc2c1
    -4.0 | .
- N#Cc1ccsc1NC(=O)c1ccc(Br)s1
    -24.0 | .
- CC(C)(C)N1C(=O)c2ccccc2C1=O
    7.0 | 1.9
- O=C(C(Sc1ccccc1)c1ccccc1)N1CCN(c2ncccn2)CC1 (stereo not given)
    -9.0 | .
- N#Cc1ccc(C2Nc3cccc4cccc(c34)N2)cc1
    -3.0 | 0.3
- C=N[C@@H](C(=O)N[C@@H]1C(=O)N2[C@@H]1SC(C)(C)[C@@H]2C(=O)O)c1ccccc1
    . | 2.8
- Cc1ccc(S(=O)(=O)NCCC(=O)NC2CCCCCC2)cc1C
    -22.0 | 0.1
- Cc1noc(C)c1CSc1nc2ccccc2[nH]1
    6.0 | .
- CCOC(=O)c1cc(C)nc(N2CCCCC2)c1C#N
    . | -0.2
- O=c1[nH]c(C(F)(F)F)nc2ccccc12
    -18.0 | .
- COC(=O)c1ccccc1N=Cc1c(C)[nH][nH]c1=O
    4.0 | 2.1
- O=C(CSc1nnc(Cc2ccccc2)o1)N1CCOCC1
    10.0 | 3.8
- O=C(COC(=O)c1ccccc1Cl)c1ccc(Cl)cc1
    . | -2.3
- CSCc1nnc(NC(=O)c2ccc(S(=O)(=O)N3CCCC3)cc2)o1
    4.0 | .
- O=C(Nc1ccccc1)c1ccc(CSc2nnc(-c3ccc4c(c3)OCO4)o2)cc1
    -7.0 | .
- c1ccc2c(c1)nc1n2CCCS1
    -10.0 | 2.1
- C[C@@H]1C(=O)O[C@H]2CC34[C@H]5C[C@@H](C(C)(C)C)C36[C@@H](OC(=O)[C@@H]6O)OC4(C(=O)O5)[C@]21O (stereo not given in full)
    . | -0.9
- Cc1cc(-c2nc3n(n2)Cc2ccccc2-3)c(C)n1-c1ccccc1
    12.0 | .
- O=C(Cc1ccc(Cl)c(Cl)c1)NCc1ccco1
    3.0 | .
- CSc1nnc2c(n1)OC(/C=C/c1ccccc1[N+](=O)[O-])Nc1ccccc1-2 (stereo not given)
    . | 1.8
- C=CCN(c1ccccc1C(=O)O)S(=O)(=O)c1ccc(NC(=O)OC)cc1
    -8.0 | .
- CCN1C(=O)/C(=C/c2c(C)c(C#N)c(=O)n(C)c2N2CCN(c3ccc(F)cc3)CC2)SC1=S
    -53.0 | .
- COc1ccc(Cn2nnnc2CN(Cc2ccc(C)cc2)Cc2cc3cc4c(cc3[nH]c2=O)OCO4)cc1
    20.0 | 0.5
- O=C(O)Cc1ccc(Br)cc1
    20.0 | .
- CC(C)n1c(C(O)c2ccccc2)nc2ccccc21 (stereo not given)
    10.0 | 0.7
- O=C(Cn1c(=O)[nH]c2ccsc2c1=O)NC1CCCCCC1
    -6.0 | 0.8
- O=S(=O)(NC1Cc2ccccc2C1)c1cccc(Cl)c1
    . | -4.4
- N#Cc1c(C(F)(F)F)cc(-c2ccccc2)nc1SCC1COc2ccccc2O1 (stereo not given)
    14.0 | 3.1
- O=C(NCCC1=CCCCC1)Nc1cccc(F)c1
    9.0 | -2.4
- CCOC(=O)CSC(=S)NCc1ccccc1
    . | -1.1

Remaining list, next part:
The line under a structure holds: Sa helicase inh | MgrA-DNA mod
- Cc1ccc2oc(-c3ccc(NC(=O)c4ccccc4F)c(C)c3)nc2c1
    . | 0.0
- CCc1nnc(NC(=O)Cc2coc3ccc(C)cc23)s1
    10.0 | -0.4
- COC(=O)N/N=C/c1ccccc1Br
    -11.0 | .
- CC(CCc1ccccc1)NC(=O)C(C)N1CCN(C(=O)c2ccccc2)CC1 (stereo not given)
    4.0 | .
- Nc1c(S(=O)(=O)c2ccccc2)csc1C(=O)O
    . | -0.7
- Cc1nc(CSc2nc(N)c(C#N)cc2C#N)cs1
    -10.0 | .
- COc1ccc(N2CCN(CC(O)COc3ccccc3)CC2)cc1 (stereo not given)
    8.0 | .
- COCCn1ccc2c(OCC(=O)NCc3ccco3)cccc2c1=O
    -14.0 | .
- CC(C)(C)c1ncc(S(=O)(=O)c2ccc(C(F)(F)F)cn2)c(N)n1
    . | 2.1
- CC1(C(=O)Nc2ccccc2)Cc2ccccc2C(=O)O1 (stereo not given)
    12.0 | 0.8
- COc1ccc(C2C(C#N)=C(N)OC(C)=C2C(=O)OCc2ccccc2)cc1 (stereo not given)
    22.0 | .
- CC(=O)Oc1ccccc1C(=O)NCCC1=CCCCC1
    6.0 | 3.6
- Cc1ccn2cc(-c3cc4ccccc4oc3=O)nc2c1
    -1.0 | .
- O=C(/C=C/c1ccc(F)cc1)Nc1ccc(S(=O)(=O)N2CCCC2)cc1
    26.0 | .
- Cc1ccccc1NC(=O)N(Cc1ccco1)C(=O)CC#N
    -30.0 | .
- NC(=S)N1N=CCC1(O)C(F)(F)F (stereo not given)
    -9.0 | .
- CN(C(=O)C1CCCCC1C(=O)O)c1ccccc1 (stereo not given)
    11.0 | 1.9
- CN(Cc1ccccc1)Cc1c(O)ccc2ccccc12
    -6.0 | 0.7
- Cc1c(NC(=O)NCc2ccccc2)n(C)c(=O)n1-c1ccccc1
    20.0 | -3.8
- O=C(O/N=C/c1ccc2c(c1)OCO2)c1ccco1
    . | 1.8
- COc1ccc(C2CC(=O)C3=C(C2)Nc2ccccc2NC3c2cc3c(cc2Cl)OCO3)cc1 (stereo not given)
    . | -0.5
- NCCCCCC(=O)O
    . | 1.5&2.9
- Nc1nc(NCc2ccco2)nn1-c1ccccc1
    6.0 | .
- CC1=CC(=O)/C(=C2/Sc3ccccc3N2C)C(=O)O1
    -85.0 | .
- CC1=CC(C)(C)N(C(=O)c2sc3ccccc3c2Cl)c2ccc(C(c3ccccc3)(c3ccccc3)c3ccccc3)cc21
    . | -1.8
- O=C(C1CCCN1C(=O)c1cccs1)N1CCN(S(=O)(=O)Cc2ccccc2)CC1 (stereo not given)
    -5.0 | .
- CNC(=O)CCC(=O)Nc1cc(Cl)ccc1Cl
    14.0 | -6.4
- COC(=O)C1=C(C)N(C)C(=O)NC1c1ccc(OC)c(Br)c1 (stereo not given)
    7.0 | -2.1
- Cc1cc(C)nc(SCc2nnc(SC/C=C/c3ccccc3)o2)n1
    3.0 | 2.2
- CC1CC(=O)N(c2cccc(C(=O)O)c2)C1=O (stereo not given)
    -5.0 | -4.9
- Cn1nc(N2CCN(CC(=O)Nc3ccc(OC(F)(F)F)cc3)CC2)c(=O)n(C)c1=O
    7.0 | .
- Cc1ccc(Nc2nc(N)nc(CSc3nc4c(n3-c3ccccc3)CCCC4)n2)cc1
    14.0 | .
- N#Cc1cnn(-c2c(Cl)cc(C(F)(F)F)cc2Cl)c1N
    . | -0.5
- CC(Oc1ccc(Cl)cc1Cl)C(=O)Nc1ccc2oc(-c3ccncc3)nc2c1 (stereo not given)
    23.0 | 1.4
- CC1CCC(NC(=O)c2cncc(Br)c2)CC1 (stereo not given)
    3.0 | 2.0
- O=C(O)c1ccccc1NCc1ccccc1Cl
    -24.0 | 2.5
- COc1cc(C2C(C(=O)OCCOc3ccccc3)=C(C)NC3=C2C(=O)CC(C)(C)C3)cc(Br)c1O (stereo not given)
    . | 0.4
- Cn1ccnc1SCCN
    10.0 | -2.9
- O=c1oc2ccc3ccccc3c2cc1-c1nnc(-c2ccccc2)o1
    . | 0.5
- Cc1ccccc1NC(=O)Nc1cc2sccc2n1C
    4.0 | -1.2
- Fc1ccccc1-c1nc(-c2cccc(C(F)(F)F)c2)no1
    0.0 | -1.5
- CN1CCN(c2cc(C(F)(F)F)nc3ccc(F)cc23)CC1
    . | -3.6
- CC(=O)NC(CCc1ccccc1)C(=O)O (stereo not given)
    . | -1.7
- CCN(C(=O)c1cnc(NC(C)C)cc1C(F)(F)F)c1ccc(Cl)cc1
    . | -0.8
- O=C1Nc2ccccc2O/C1=C\c1ccccc1
    10.0 | 1.4
- O=C(CCN1N=C(c2ccccc2)CCC1=O)NCCCN1CCCCCC1
    2.0 | -1.4
- COC(=O)c1ccc(CNC(=O)C(C)Sc2ccccc2)cc1 (stereo not given)
    11.0 | .
- Cc1nc(Br)sc1C(=O)O
    . | -2.1
- CN(C)C(=S)SCC(=O)N1c2ccccc2NC(=O)C1(C)C
    12.0 | .
- CCN(CC(=O)NCc1ccc(F)cc1)C(=O)Cn1c(C)nc2ccccc21
    -2.0 | .

Remaining list, next part:
The line under a structure holds: Sa helicase inh | MgrA-DNA mod
- CC[C@@H](C(=O)C(C)[C@@H](O)[C@H](C)CCc1ccc(C)c(O)c1C(=O)O)C1OC(CC)(C2CC[C@](O)(CC)[C@H](C)O2)C[C@@H]1C (stereo not given in full)
    . | -0.2
- Cc1ccccc1N1C(=O)c2ccccc2S1(=O)=O
    12.0 | 0.8
- O=C(NCCCN1CCOCC1)NCc1cccc2ccccc12
    . | -2.4
- COc1cc(CNCc2ccco2)ccc1OCC(N)=O
    3.0 | -1.1
- CCCCN1C(=O)c2ccc(C(=O)N3CCc4ccccc43)cc2C1=O
    2.0 | .
- O=C(Nc1ccn(C2CC(OC(=O)c3ccccc3)C(CO)O2)c(=O)n1)c1ccccc1 (stereo not given)
    2.0 | .
- O=C(NC1CC1)c1cc(F)cc2c1OCOC2
    . | -0.8
- CCOc1cc(/C=C2\SC(=O)NC2=O)ccc1OC(=O)c1cccc([N+](=O)[O-])c1
    . | 0.1
- CCC(C)[C@H](NS(=O)(=O)c1cccc2ccccc12)C(=O)N[C@H](C=O)Cc1c[nH]c2ccccc12 (stereo not given in full)
    . | 0.1
- c1cnc2c(CN3CCCCCC3)cccc2c1
    22.0 | -2.5
- C#CCOc1c(Br)cc(/C=N/O)cc1OCC
    12.0 | 4.2
- NC(=O)c1ccc(S(N)(=O)=O)o1
    8.0 | -0.1
- Cc1ccn2c(=O)c(C(=O)O)cnc2c1
    . | 0.1
- Cc1ccc(C)c(N(CC(=O)Nc2ccccc2)S(C)(=O)=O)c1
    0.0 | -0.1
- CC1=CC(=O)N(c2ccn(C)n2)C1=O
    . | 2.3
- CCNC(=O)/C=C/c1cccc(OC)c1OC
    12.0 | .
- O=C(NCc1ccccn1)c1cccnc1SCCS(=O)(=O)c1ccc(C(F)(F)F)cn1
    . | 3.8
- O=c1[nH]cc(NCCO)c(=O)[nH]1
    -71.0 | .
- Cn1ncc2c(NNS(=O)(=O)c3ccccc3)ncnc21
    -29.0 | .
- Clc1ccc(Nc2nnc3c4ccccc4c4ccccc4c3n2)cc1
    . | 0.9
- Cc1cccc(C)c1NC(=O)c1ccc(CN2CCCCC2)cc1
    10.0 | .
- Cc1c(NC(=O)C(C)OC(=O)c2cccc(S(=O)(=O)N3CCCC3)c2)c(=O)n(-c2ccccc2)n1C (stereo not given)
    -15.0 | .
- COc1ccc2oc(C(=O)OCc3ccc(OC)c(F)c3)c(C)c2c1
    -4.0 | .
